Vif TR-FRET: inhibitors of Vif binding to APOBEC3G peptide, primary screen, biochemical, TR-FRET, GST-Vif 1-94, biotin-A3G peptide, dose response retest (AID 1117319); 0.57% of 260,000 active; inhibition, %, or IC50 in µM where a hit was titrated; Virion infectivity factor (Human immunodeficiency virus type 1 group M subtype B (isolate …; TR-FRET GST-Vif / biotin-A3G peptide binding; higher % means a stronger effect; test concentration not given here; strong numbers were not always called active;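 active = above the screen mean plus three standard deviations and confirmed in dose response; inconclusive = results disagree or hit not tested in dose response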;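 note: Vif residues 1-94 fused to GST binding biotinylated APOBEC3G peptide 110-148; 0% = full assay without inhibitor and 100% = GST in place of GST-Vif; retest series ran down from 100 µM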
Bfl-1 A1 inh: caspase 3/7 activation in MEF A1-2A-BIM cells, primary screen, A1 inhibitor project, cell-based, luminescence, HTS; 0.066% of 330,000 active; caspase activation, % (concentration not given with the values); AID 2462, 2010; Caspase-Glo 3/7 luminescence, 3 h; percent of clofoctol response, vehicle zero;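 active = over half of replicate activation scores above 10%, or exactly half above 10 with the replicate mean above 10; inconclusive = replicate mean below 10 yet half the replicates above 10; inactive = over half of replicates below 10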;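 note: wells of about 30 µL received 50 nL stock; many hits fall short of the cut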
Calb FLC: C. albicans growth inhibition with fluconazole, primary screen, CaCi-2 strain, Alamar Blue fluorescence | C. albicans CaCi-2 (fluconazole-resistant clinical isolate) + fluconazole, 48 h | growth inhibition, % (concentration not given with the values) | 0.57% of 300,000 active | AID 1979, 2009;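 active = most replicates above 75%; inconclusive = exactly half above 75%; inactive = most below 75%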;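 note: all wells also contain fluconazole at 8 µg/ml as a sub-toxic cotreatment; 0% = median of DMSO wells and 100% = median of geldanamycin control wells; wells of about 8 µL received 7.5 nL stock; the first replicate is given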
Beta apoptosis: inhibitors of cytokine-induced beta cell apoptosis, primary screen, luminescence; INS-1E cytokine-induced death, ATP luminescence, 48 h; percent of positive-control rescue, neutral wells zero; protection from apoptosis, % (no concentration beside the values); 0.8% of 300,000 active; AID 435005, 2010;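 active = all replicates at 75% or more, or half of them and the mean; inconclusive = half reach 75% but not the mean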;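 note: 0% = cytokine-treated negative control wells and 100% = positive control rescue; higher means more ATP so stronger rescue from cytokine killing; wells of about 40 µL received 100 nL stock; the first replicate is given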
RanGTP-Impb inh: inhibitors of RanGTP-importin-beta interaction, primary screen, biochemical, FRET, CFP-Ran, YFP-importin-beta, homogeneous; 1.1% of 300,000 active; inhibition, % (concentration not given with the values); cell-free CFP-Ran/YFP-importin-beta FRET ratio;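 active = most replicates above 15%; inconclusive = exactly half above 15%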;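 note: 0% = DMSO wells and 100% = Ran loaded with GDP instead of GTP; wells of about 40 µL received 100 nL stock; the first replicate is given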
T cruzi inh: inhibitors of intracellular T. cruzi growth, primary screen, luminescence, NIH3T3 host cells | 1.4% of 300,000 active | T. cruzi beta-gal in NIH3T3, 90 h | inhibition, % (concentration not given with the values);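 active = mean inhibition across valid replicates above about 55%, limit read from the data; inconclusive = mean below that limit but half or more replicates reach it; inactive = mean below it, under half of replicates reach it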;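 note: signal also drops with host cell toxicity which is not excluded here; 0% = plate median of DMSO wells and 100% = zero luminescence signal; higher percent means less beta-gal luminescence so fewer parasites; stock transfer was 50 nL into about 50 µL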
rRNA inh HTS: reduced GFP signal of wild-type E. coli, primary screen, bacterial rRNA inhibitor project, GFP/RFP fluorescence, OD600, single point | E. coli WT GFP vs humanized-ribosome RFP mutants, 24 h; active compounds read low; DMSO median 0, no signal -100 | AID 720706, 2013 | 1.6% of 350,000 active | GFP signal change (wild-type ribosome), % (no concentration beside the values);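 active = significant combined selectivity score with lowered wild-type GFP, culture density cut under 30%, mutant RFP and density less affected; inactive = any of these conditions unmet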; note: one replicate is shown; some compounds called inactive have numbers as strong as hits
MLL AF4-AF9 inh: inhibitors of AF4 peptide binding to AF9, primary screen, biochemical, AlphaScreen, biotin-AF4 peptide, FLAG-AF9, single point; inhibition, % at 10 µM; 0.47% of 350,000 active; Protein AF-9 (Homo sapiens), P42568;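 active = every replicate reaching a set inhibition limit, whatever the replicate mean, cut at about 25% in these data; inconclusive = mean inhibition reaches that limit but some replicates miss it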;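 note: 0% = plate neutral control median and 100% = total signal loss; the record names both 10 and 1 µM as test concentration; the first replicate is given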
Target sequence (P42568 whole entry, looked up): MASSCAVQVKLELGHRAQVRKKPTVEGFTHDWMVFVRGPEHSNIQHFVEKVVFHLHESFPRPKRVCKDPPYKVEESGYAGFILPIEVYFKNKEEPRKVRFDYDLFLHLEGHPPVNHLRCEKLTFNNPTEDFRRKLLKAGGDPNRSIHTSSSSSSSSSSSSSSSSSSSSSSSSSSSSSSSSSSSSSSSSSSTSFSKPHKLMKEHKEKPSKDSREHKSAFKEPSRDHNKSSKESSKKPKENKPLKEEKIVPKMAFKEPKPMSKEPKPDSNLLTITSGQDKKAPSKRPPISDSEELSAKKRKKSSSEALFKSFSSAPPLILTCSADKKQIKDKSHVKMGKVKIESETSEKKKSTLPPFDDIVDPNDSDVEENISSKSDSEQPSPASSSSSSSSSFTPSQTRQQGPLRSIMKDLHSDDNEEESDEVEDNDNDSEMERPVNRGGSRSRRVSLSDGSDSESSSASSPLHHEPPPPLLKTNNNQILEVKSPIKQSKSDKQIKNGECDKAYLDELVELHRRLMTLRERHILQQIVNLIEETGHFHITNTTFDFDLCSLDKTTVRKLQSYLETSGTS
rRNA inh HTS OD600: also measured in rRNA inh HTS; calls as there; OD600 change, %; measured here: OD600 growth;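 optical density of the mix in the first replicate; 0 = DMSO median and -100 = no signal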
rRNA inh HTS RFP: second read-out of rRNA inh HTS, no call of its own (marks repeat the call); RFP signal change, %; measured here: RFP humanized mutant strains;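 first replicate; 0 = DMSO median and -100 = no signal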
The depositor's hits bear a star; ? = inconclusive; nt = not tested or not shown; & = joins results of further samples.

SMILES	T cruzi inh	Beta apoptosis	RanGTP-Impb inh	Vif TR-FRET	MLL AF4-AF9 inh	rRNA inh HTS	rRNA inh HTS OD600	rRNA inh HTS RFP	Calb FLC	Bfl-1 A1 inh
COCCNC(=O)C(OC(=O)c1cccs1)c1ccccc1 (stereo unspecified)	-7.3	-1.7	-2.7	-7.4%	nt	nt	nt	nt	0.2	0.1
CSCCC(NS(=O)(=O)c1ccccc1F)C(=O)NCc1cccnc1 (stereo unspecified)	1.7	2.5	-1.0	-2.1%	-1.2	8.0	5.6	2.2	-9.7	0.3
Cc1cccc(CCNC(=O)Cn2ncc3c([nH]c4ccccc43)c2=O)c1	-18.9	3.9	1.4	nt	nt	nt	nt	nt	11.3	0.9
ClCc1nc2ccccc2c2ccccc12	-5.8	26.2	2.8	nt	-1.4	-14.1	-18.8	3.1	-14.0	1.1
CCN1CCC(NC(=O)c2cc(OC)c(OC)cc2OC)CC1	12.8	-1.4	1.5	3.5%	6.7	11.2	7.2	-2.2	-13.6	0.7
COC(Cc1nnc(SC)n1-c1ccc(Cl)cc1)OC	-2.2	-5.8	0.0	43µM*	nt	nt	nt	nt	7.7	0.9
Cc1cnc(C(=O)OCC(=O)NCc2cccc(Cl)c2)cn1	nt	2.8	nt	-7.5%	-1.3	9.7	11.8	-0.5	nt	-0.6
Cc1cc(=O)oc2cc(OCC(=O)NCCc3ccccc3)ccc12	5.8	3.3	-3.8	-9.0%	0.3	0.1	4.3	-0.5	-12.2	-0.4
COC(=O)c1ccc(-c2nn(C)c(=O)c3ccccc23)cc1	-2.2	nt	-1.1	0.7%	-0.6	0.4	11.0	-1.9	-0.9	1.5
CCOC(=O)C1=C(C)NC(=O)C(C(N)=O)C12CCCC2 (stereo unspecified)	-2.1	-6.2	0.1	0.4%	nt	nt	nt	nt	?	-0.3
Cc1ccc(C)c(NCc2ccccc2CO)c1	-12.9	-14.5	-3.8	9.5%	0.2	2.8	6.1	-1.6	-12.1	0.3
O=C(CCCCCN1C(=O)c2ccccc2C1=O)NCCc1nc2ccccc2[nH]1	15.8	nt	6.2	-3.0%	nt	nt	nt	nt	-8.6	-0.3
Cc1ccccc1-c1nsc(SCC(=O)Nc2ccc3c(c2)OCO3)n1	-0.9	nt	0.1	nt	nt	nt	nt	nt	4.1	-0.1
O=C(Oc1cccnc1)c1cccc(Cl)c1	-8.5	-4.1	1.4	-0.5%	-11.6	5.0	6.2	-5.7	14.6	0.5
O=C(Nc1ccccc1C(=O)O)/C(=C/c1ccc(Cl)cc1Cl)NC(=O)c1ccco1	-11.9	-5.8	2.4	nt	-1.3	-32.0*	-14.8*	-0.6*	13.9	0.7
CCN(CC)S(=O)(=O)c1cccc(NC(=O)c2cc(-c3cccs3)nn2-c2ccccc2)c1	21.8	?	-0.2	?	nt	nt	nt	nt	-3.0	0.1
CCCC(=O)Nc1c(-c2ccccc2)c(=O)c(C)nn1-c1ccc(Cl)cc1	-5.3	-0.8	-3.1	nt	-1.7	15.7	10.1	5.0	-2.8	0.4
COc1cccc(NC(=O)COC(=O)c2ccco2)c1	3.6	-6.4	7.5	32.3%	nt	nt	nt	nt	-1.9	-0.2
COc1ccccc1NC(=O)CSc1nnc(-c2ccccc2)o1	-8.6	9.8	-2.8	2.4%	-3.1	-0.9	-0.2	0.1	3.7	-0.2
CCO[C@H]1OC(C(=O)NC2CC2)=C[C@@H](c2ccc(Br)cc2)[C@@H]1CCCO	6.6	-1.7	-3.3	16.1%	-1.1&3.2	5.9	14.2	1.4	-5.6	0.2
COc1ccc(N2CCN(C(=O)C3CCN(S(=O)(=O)c4c(C)noc4/C=C/N(C)C)CC3)CC2)cc1	4.4	0.7	-0.5	3.1%	3.8	1.6	13.8	1.5	5.4	0.2
O=C(Nc1cccnc1)c1ccc(S(=O)(=O)c2ccc(Cl)cc2)cc1	17.7	-2.3	6.3	-5.0%	-1.4	-7.9	-4.7	4.7	22.2	?
CC(C)(C)c1nnc(NC(=O)Cc2ccccc2[N+](=O)[O-])s1	-10.0	-2.4	1.3	1.2%	nt	nt	nt	nt	-11.1	0.1
Cc1ccc(-n2c3c(c(=O)[nH]c2=S)C(C(F)(F)F)(C(F)(F)F)NC(=O)N3)cc1	-0.8	-0.5	3.2	4.6%	nt	nt	nt	nt	42.8	0.1
COc1ccccc1CNC(=O)C(=O)NCCC1CCCCN1S(=O)(=O)c1ccccc1 (stereo unspecified)	16.6	nt	4.5	-2.0%	-1.1	5.5	0.9	-0.8	5.6	0.5
O=C(/C=C/c1cccc([N+](=O)[O-])c1)NC(=S)Nc1ccc(CN2CCOCC2)cc1	16.8	-6.4	-2.1	nt	1.4	3.1	-0.8	-6.5	12.2	0.3
CC(=O)N1CCN(c2ncnc3ccccc23)CC1	-4.5	nt	1.1	nt	-17.9	6.2	6.4	1.1	0.2	-0.1
COc1ccc(N/C=C(/C(C)=O)c2ccccc2)cc1	-11.7	-4.1	-5.9	-1.4%	nt	nt	nt	nt	-1.2	1.1
Cc1ccc(-n2nnnc2SCC(=O)Nc2cccnc2Cl)cc1	-19.8	-2.6	-2.0	-2.5%	nt	nt	nt	nt	6.1	0.0
Cc1ccc(S(=O)(=O)NC(=O)COc2cc(C)ccc2C(C)C)cc1	0.8	-3.9	-1.9	2.2%	-0.9	-13.6	-19.1	-2.1	8.6	0.8
COc1ccc(C(=O)Nc2cnn(Cc3c(F)cccc3Cl)c2)cc1OC	-1.6	-4.7	0.7	nt	-1.9	-19.4	-16.6	0.8	5.0	-0.7
Cc1c(C(=O)NCCN2CCOCC2)oc2ccc(S(=O)(=O)N3CCCCCC3)cc12	2.1	-1.5	3.7	-4.6%	nt	nt	nt	nt	1.8	1.9
Cc1ccc(CNC(=O)C(OC(=O)c2ccco2)C(C)C)cc1 (stereo unspecified)	-4.4	-5.5	?	-3.6%	nt	nt	nt	nt	3.4	-0.8
O=C(NCc1ccc2c(c1)OCO2)C1(S(=O)(=O)c2ccccc2)CC1	1.7	-4.3	-2.2	15.6%	nt	nt	nt	nt	0.9	-0.5
O=C(c1ccc(CS(=O)c2ccccc2Cl)o1)N1CCN(c2ccccn2)CC1 (stereo unspecified)	7.2	-3.2	-0.9	2.3%	2.4	-7.8	-6.2	0.7	-2.0	0.1
CCCCNC(=O)CN(c1cccc(F)c1)S(C)(=O)=O	-9.4	-9.9	6.2	6.3%	nt	nt	nt	nt	6.4	-1.1
O=C(COc1ccc(Cl)cc1)NNC(=O)C(=O)NC1CCCCC1	1.0	-1.0	0.2	-9.8%	-2.3	16.6	14.2	-0.4	-3.1	0.4
O=C(O)CN1CCN(C(c2ccccc2)c2ccccc2)CC1	-9.8	-3.1	?	-1.6%	-19.2	5.7	9.6	-1.4	-6.2	0.4
Fc1ccccc1-c1cc2ncccc2cn1	nt	0.7	nt	nt	0.2	-0.5	6.1	-7.5	nt	-10.3
CCc1ccccc1NC(=O)C1c2ccccc2Oc2ccccc21	11.2	-4.9	7.6	nt	0.4	9.3	22.0	4.0	?	0.8
CCc1nc(N2CCCCC2C(=O)O)c2oc3ccccc3c2n1 (stereo unspecified)	0.4	-17.9	1.1	-9.1%	-9.4	-4.7	8.1	4.4	-8.5	0.1
CC(=O)N1CCN(c2ccc(NC(=O)c3ccc(F)cc3)cc2)CC1	-8.3	-6.4	1.8	nt	2.7	13.1	5.0	4.2	4.6	1.2
Cc1cc(C)cc(N(C(=O)c2ccc3c(c2)OCO3)C2C=CS(=O)(=O)C2)c1 (stereo unspecified)	-0.5	2.4	0.7	1.2%	nt	nt	nt	nt	?	1.0
S=C(NCc1ccco1)N/N=C/c1ccc(Cl)cc1	18.6	-4.8	4.2	?	3.0	-38.7*	-27.6*	3.2*	?	0.4
C/C=C/Cn1c(SC)nc2c1c(=O)[nH]c(=O)n2C	-5.5	-3.5	0.2	2.7%	-0.4	nt	nt	nt	10.3	-0.3
COC(=O)c1ccc(NC(=O)CO/N=C2\CCCc3nonc32)cc1	12.7	-1.4	-2.2	-6.5%	-2.4	-15.1	-8.7	-0.8	-10.4	-1.1
COc1cc(/C=C/C(=O)OCC(=O)NC(=O)NC(C)C)ccc1O	7.6	-1.9	9.0	19.9%	-8.6	-1.6	-6.8	1.6	-2.2	0.6
CCOc1ccc(-n2cc(-c3ccccc3)c3c(N4CCOCC4)ncnc32)cc1	-0.7	13.8	0.3	0.1%	-13.9	-0.9	23.0	1.8	-5.9	0.3
CC(C)[C@H](NC(=O)c1ccccc1Cl)C(=O)Nc1nc(-c2ccccn2)cs1	65.9*	31.6	-2.0	-1.7%	-1.2	-28.7*	-18.2*	-11.2*	-4.8	-0.7
Cc1ccc(CNC(=O)C2CCC(=O)N(Cc3cccc(C(F)(F)F)c3)C2)o1 (stereo unspecified)	-11.7	-5.1	6.6	nt	0.6	17.2	7.0	8.7	-6.1	0.1

Going on with the list:
SMILES	T cruzi inh	Beta apoptosis	RanGTP-Impb inh	Vif TR-FRET	MLL AF4-AF9 inh	rRNA inh HTS	rRNA inh HTS OD600	rRNA inh HTS RFP	Calb FLC	Bfl-1 A1 inh
Cc1ccc(S(=O)(=O)N[C@@H](Cc2ccccc2)C(=O)N2CCC(C(=O)N[C@@H](CC(C)C)C(=O)O)CC2)cc1	-10.7	-7.9	-5.4	-3.2%	-0.3	15.0	20.8	0.9	2.7	-0.2
CCN(CC)c1nc(-c2ccccc2)cc(C(F)(F)F)c1C#N	-3.1	3.6	25.9*	-5.2%	nt	nt	nt	nt	-6.7	0.5
COc1ccc(C(=O)c2c[nH]c(C(=O)NCc3cccs3)c2)cc1	7.4	-9.3	-1.4	-1.7%	nt	nt	nt	nt	14.2	1.3
CCOC(=O)c1[nH]c2ccccc2c1NC(=O)c1ccc2c(c1)OCO2	11.3	3.5	2.7	-3.9%	-1.0	9.3	0.8	1.3	-8.2	-0.3
COc1ccc(C(C#N)N2N=C(C)CC2(C)C)cc1OC (stereo unspecified)	-8.5	-9.1	?	23.2%	nt	nt	nt	nt	0.6	1.0
CC(=O)C1=C(C)NC(SCC(N)=O)=C(C#N)C1c1cccs1 (stereo unspecified)	-5.3	-8.0	2.6	2.5%	nt	nt	nt	nt	-1.4	0.1
Cc1nc(C(F)(F)F)ccc1C(=O)Nc1ccc2ccccc2n1	7.4	2.6	1.0	3.2%	4.5	9.6	9.3	0.7	3.4	-1.7
COc1ccc([C@H]2[C@H]3C=CC[C@@H](C)[C@@H]3C(=O)N2Cc2ccccc2)cc1Cl	20.4	-17.1	?	0.6%	1.0	-11.6	-10.7	3.1	-12.9	0.3

The list is partial; rates above refer to the full screens.
